PABP FP inh = PABP-poly(A) binding inhibition | P11940 | PABP-poly(A) RNA binding, fluorescence polarization | inhibition, % at 35 µM | 1% of 290,000 active;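 active means 50% or more with normal probe brightness, or confirmed in later tests; inconclusive means above 50% with abnormal brightness, or retests that disagree; inactive means below 50% or failed in later tests; about a fifth of its hits are not listed in these tables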;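 further: calls also rest on retests at 20 µM and on dose response follow-up; controls were probe without protein and protein plus probe with vehicle; some compounds called inactive have numbers as strong as hits; many hits fall short of the cut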
Target sequence (P11940 whole entry, looked up): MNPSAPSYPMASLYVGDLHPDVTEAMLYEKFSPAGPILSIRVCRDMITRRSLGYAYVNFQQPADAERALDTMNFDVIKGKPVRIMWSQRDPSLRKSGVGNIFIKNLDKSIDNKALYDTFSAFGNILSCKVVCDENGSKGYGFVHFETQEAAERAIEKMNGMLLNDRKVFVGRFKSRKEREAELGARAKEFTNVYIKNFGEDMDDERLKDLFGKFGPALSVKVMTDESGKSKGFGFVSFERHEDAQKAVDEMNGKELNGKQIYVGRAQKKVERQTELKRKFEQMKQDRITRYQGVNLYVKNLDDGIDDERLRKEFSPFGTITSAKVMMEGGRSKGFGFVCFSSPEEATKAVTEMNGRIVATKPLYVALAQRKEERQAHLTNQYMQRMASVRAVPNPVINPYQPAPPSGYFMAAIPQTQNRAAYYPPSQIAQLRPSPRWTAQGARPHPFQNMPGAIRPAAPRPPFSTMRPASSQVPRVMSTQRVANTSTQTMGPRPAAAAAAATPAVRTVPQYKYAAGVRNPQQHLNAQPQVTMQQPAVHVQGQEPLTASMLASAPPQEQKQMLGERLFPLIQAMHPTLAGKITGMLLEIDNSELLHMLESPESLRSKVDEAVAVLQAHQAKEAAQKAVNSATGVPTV
HIV Env fusion = HIV envelope-mediated fusion inhibition; HeLa-JRFL Env/CEM21 cell fusion, luciferase; inhibition, % at 12.3 µM; 1.1% of 360,000 active; AID 651610;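 active means mean replicate inhibition score of at least 50 and every replicate individually at or above 50; inconclusive means only one of the two criteria met; inactive means mean below 50 and not all replicates reaching 50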;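 further: 0% = plate neutral controls and 100% = maraviroc near 300 nM; one replicate is shown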
Rce1 inhib = yeast Ras-converting enzyme inhibition; Q03530; yeast membranes, quenched prenylated peptide cleavage fluorescence; calls only; 0.27% of 290,000 active; AID 2563;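 active means fall in fluorescence gain of 50% or more versus controls, with final raw signal at or below 3038400; inconclusive means same 50% fall but final raw signal above 3038400; inactive means fall in fluorescence gain under 50%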;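 further: plate controls were neutral control wells for no effect and wells lacking membranes for full effect; tested at 10 µM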
Target sequence (Q03530 whole entry, looked up): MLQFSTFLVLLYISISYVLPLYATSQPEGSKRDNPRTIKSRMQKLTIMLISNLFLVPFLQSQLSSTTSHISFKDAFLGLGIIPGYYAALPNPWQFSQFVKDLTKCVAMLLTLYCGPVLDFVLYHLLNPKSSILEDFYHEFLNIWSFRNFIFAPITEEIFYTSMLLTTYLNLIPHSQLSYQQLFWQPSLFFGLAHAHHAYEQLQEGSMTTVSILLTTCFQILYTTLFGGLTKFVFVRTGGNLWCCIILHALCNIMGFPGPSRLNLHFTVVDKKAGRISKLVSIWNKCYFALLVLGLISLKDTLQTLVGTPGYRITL
eIF4H FP inh = inhibitors of RNA binding by human eIF4H; eIF4H fluorescence polarization binding assay; inhibition, % at 35 µM; 0.94% of 290,000 active;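 active means 50% or more with normal probe brightness, or confirmed in later tests; inconclusive means above 50% with abnormal brightness, or retests that disagree; inactive means below 50% or failed in later tests; about a fifth of its hits are not listed in these tables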;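 further: calls also rest on retests at 20 µM and on dose response follow-up; 0% = protein and probe with vehicle and 100% = probe without protein; strong numbers were not always called active; many hits fall short of the cut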
CSC inhib = cancer stem cell inhibition | 1.1% of 300,000 active | inhibition, % at 7.5 µM | cancer stem cell-like cells viability, luminescence | AID 2717;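 active means mean at 75% or more and at least half the replicates too; inconclusive means mean and replicates disagree; tested in HMLE shEcad cells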;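 further: 0% = median of negative and 100% = median of positive control wells; the first replicate is given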
MT1-MMP act inh = inhibitors of human MT1-MMP activation; P50281; HT1080 RFP-PRO-GFP cells, GFP/RFP ratio fluorescence, overnight; percent of plate control window, DMSO zero; 0.061% of 360,000 active; GFP/RFP ratio change, % at 20 µM;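 active means GFP/RFP ratio change of at least 30% with cell ATP level not reduced by more than half and red fluorescence within 50% of control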; further: strong numbers were not always called active
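Material: RFP-PRO-GFP reporter HT1080 cells. Dosing: single-point 20 µM compound, 1% DMSO. Controls: DMSO and RFP-L50D-GFP cell wells. Timing: cells overnight before dosing, compound overnight, 37 °C, 5% CO2. Measure: GFP/RFP fluorescence ratio.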
UUG fidelity = yeast start codon fidelity modulation. 0.13% of 350,000 active. activity score, % at 18.7 µM. S. cerevisiae UUG-firefly luciferase reporter, luminescence/redox ratio;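 active means replicate mean at a twofold rise or more, about +100% in these data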;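 further: firefly luciferase made from a UUG start codon reports start codon fidelity; reporter light over untreated wells divided by growth signal over untreated wells; some hits fall short of that in this replicate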
eIF4H FP inh retest = also measured in eIF4H FP inh; calls as there; inhibition, %; compound at 20 µM; confirmation average;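 mean of two retest wells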
PABP FP inh retest = recorded beside PABP FP inh, whose call it bears; inhibition, %; compound at 20 µM; confirmation repeats;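 mean of two retest wells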
MT1-MMP act inh RFP = second read-out of MT1-MMP act inh, no call of its own (marks repeat the call); RFP signal change, %; measured here: RFP expression control read;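 0 = vehicle wells; hits needed this value within 50% of zero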
* = called active by the depositor; i = inactive; u = inconclusive; x = no result given.

SMILES	PABP FP inh	HIV Env fusion	Rce1 inhib	eIF4H FP inh	CSC inhib	MT1-MMP act inh	MT1-MMP act inh RFP	UUG fidelity	others
O=C1N=C(N2C=CC(=C3C=CNC=C3)C=C2)/C(=C/N=NC(=O)c2ccccc2)S1	29	-18	i	1	x	-2	-3	-9
Cc1nc(SCc2ccc(F)cc2)c2oc3ccccc3c2n1	0	14	i	-4	-10	4	0	-7
COc1ccc(Cl)cc1C(=O)OCC(=O)NCc1cccs1	x	-4	x	x	-16	-1	0	-20
COc1cc(NC(=O)CN2CCCCC2)c(C)cc1[N+](=O)[O-]	-5	-7	i	1	-6	2	0	-8
Cc1ccc(N2CC(C(=O)OCC(=O)c3c(N)n(CC(C)C)c(=O)n(C)c3=O)CC2=O)cc1 (centres undefined)	x	x	i	x	31	-4	-12	x
CC(=O)O/N=C(\N)c1cnn2c(C(F)(F)F)cc(C(F)(F)F)nc12	4	-13	i	-16	0	1	1	x
CC(=O)C1=C(C)OC(N)=C(C#N)C1c1cc([N+](=O)[O-])ccc1Cl (centres undefined)	6	-31	i	-2	11	0	0	x
COc1ccc(Cl)cc1NC(=O)C(C)OC(=O)Cn1cc(C(F)(F)F)ccc1=O (centres undefined)	x	0	x	x	x	-1	2	-10
Cc1nc2ccn(Cc3ccccc3)c(=O)c2cc1C(=O)N1CCN(c2ccc(F)cc2)CC1	1	0	i	5	-11	2	-5	-17
CC(C)N(C(=O)CSc1nnc(CN2CCCCCC2=O)n1-c1ccccn1)C(C)C	4	-5	i	1	-7	-5	-5	-16
C=CCN(CC=C)C(=O)C(=O)c1cc(C)n(-c2ccc([N+](=O)[O-])cc2)c1C	9	16	i	-6	0	4	-9	-7
CCc1nnc(NS(=O)(=O)c2ccc(N3C(=O)c4ccccc4C3=O)cc2)s1	6	-43	i	9	-8	0	4	x
CCC(C)C(=O)Nc1cc(OC)c(OC)cc1C(=O)O (centres undefined)	0	x	i	-2	1	1	0	-8
Cc1ccnc(NC(=O)c2cccc(NC(=O)CC3SC(N4CCCCC4)=NC3=O)c2)c1 (centres undefined)	x	10	x	x	1	2	7	4
COc1ccc(S(=O)(=O)Cc2ccc(C(=O)O)o2)cc1	8	0	i	-15	-9	-1	-1	-8
CCCOc1ccc(C(=O)Nc2ccc(Cl)cn2)cc1	-3	x	i	3	1	1	-8	-36
COc1ccc(NC(=O)CN2CCN(c3ccccc3)CC2)cc1	8	2	i	-4	-10	-1	4	-14
CCCOc1ccc(NC2=CC(=O)CC(C)(C)C2)cc1	4	x	i	3	x	-2	0	-33
COc1ccccc1C(=O)Nc1ccc2c(c1)nc(CCNC(=O)c1ccco1)n2C	0	-243	i	-16	x	0	-7	-22
CC(=O)c1c(C)[nH]c(C(=O)OCC(=O)Nc2cccnc2Cl)c1C	x	21	x	x	x	-1	-13	-25
CCCCOc1ccc(CSCCN=C(N)N)cc1	8	9	i	-5	x	-3	-21	x
COc1ccc(OC)c(C2C3=C(CCCC3=O)Nc3nnnn32)c1 (centres undefined)	-8	x	i	-6	-2	-3	-1	-28
O=C(c1cc(-c2ccc3c(c2)OCO3)on1)N1CCN(c2ccc(F)cc2)CC1	1	-52	i	4	x	9	-2	-13
Clc1ccccc1CSc1snnc1-c1ccccc1	12	-154	i	6	22	5	5	-15
COc1ccc(Cc2nnc(SCC(=O)c3cccc([N+](=O)[O-])c3)n2C)cc1	14	x	i	2	-17	9	2	-11
COc1cccc(C(=O)NCC2CCCN(C(=O)Cc3cccc(C)c3)C2)c1OC (centres undefined)	x	16	x	x	x	-2	0	0
O=C(Nc1cc(S(=O)(=O)N2CCOCC2)ccc1N1CCOCC1)c1ccc(S(=O)(=O)N2CCCCC2)cc1	16	8	x	-5	16	-4	-7	x
Cn1c2ccccc2c2cc(C(=O)N3CCN(CCO)CC3)sc21	-12	-3	i	8	-19	4	4	10
Cc1ccc(C)c(S(=O)(=O)NC(Cc2c[nH]c3ccccc23)C(=O)O)c1 (centres undefined)	1	-4	i	-6	-16	2	6	x
CC(=O)N1c2ccc(S(=O)(=O)N3CCCCC3)cc2CC1C(=O)Nc1ccc(C)cc1 (centres undefined)	1	-12	i	-8	2	4	3	-22

Gathered by group, the compounds so far containing a thiophene ring, fused or not.
SMILES	PABP FP inh	HIV Env fusion	Rce1 inhib	eIF4H FP inh	CSC inhib	MT1-MMP act inh	MT1-MMP act inh RFP	UUG fidelity	others
COc1ccc(Cl)cc1C(=O)OCC(=O)NCc1cccs1	x	-4	x	x	-16	-1	0	-20
Cn1c2ccccc2c2cc(C(=O)N3CCN(CCO)CC3)sc21	-12	-3	i	8	-19	4	4	10

(continued)
SMILES	PABP FP inh	HIV Env fusion	Rce1 inhib	eIF4H FP inh	CSC inhib	MT1-MMP act inh	MT1-MMP act inh RFP	UUG fidelity	others
Cc1ccc(N(C(=O)Cc2cccs2)C(C(=O)NC2CCCC2)c2ccncc2)cc1 (centres undefined)	4	31	i	-8	5	2	0	x
c1ccc(Cn2cnc3ccccc32)cc1	0	x	x	0	1	8	-5	-14
O=C(Cc1c[nH]c2ccccc12)OCCOC(=O)Cc1c[nH]c2ccccc12	-9	-49	i	-5	-7	-4	-4	-10
Cc1cc(C)n2nc(C(=O)N/N=C/c3cccs3)nc2n1	3	-12	i	-2	2	-1	-1	-33
CC1=N/C(=C\c2ccccc2Cl)C(=O)O1	x	-2	i	x	-10	2	1	x
Cc1ccc(N2C(=S)NC3c4cc(Cl)ccc4OC2(C)C3C(=O)N(C)C)cc1 (centres undefined)	-8	8	i	-1	-2	-2	0	-18
COc1cccc(NC(=O)C2CSC3(C)CCC(=O)N23)c1 (centres undefined)	x	x	i	x	-13	-3	1	6
CCC1CCCN1Cn1cnc2c([nH]c3ccc(C)cc32)c1=O (centres undefined)	15	-23	i	2	3	2	5	-23
CCN(CC)S(=O)(=O)c1ccc(C(=O)OCC(=O)N2CCN(C(=O)c3ccco3)CC2)cc1	-6	-18	i	-8	-4	-6	2	3
O=C1c2ccccc2C(O)(c2ccccc2)N1c1ccncc1 (centres undefined)	-3	-4	i	6	-8	-2	0	-1
CC1(C)C(=O)Nc2ccccc2N1C(=O)COC(=O)C12CC3CC(CC(O)(C3)C1)C2	44	-3	i	41	-16	-5	1	-1
COc1ccc(Nc2nc(N)c([N+](=O)[O-])c(N3CCCC3)n2)cc1	11	3	i	2	22	-7	-5	-7
CCOC(=O)CSc1nc2cc3c(cc2cc1C)OCO3	-3	-1	i	-3	26	-1	0	-10
CC(=O)C1=C(C)Nc2ncnn2C1c1ccccc1 (centres undefined)	-5	0	i	0	-5	-2	1	-24
N#CC1=C(N)N(c2ccccc2)C(c2ccco2)C1(C#N)C#N (centres undefined)	17	x	i	1	-3	2	-6	-20
Cc1ccc(CNC(=O)CSc2nnc(CNC(=O)c3ccc(F)cc3)o2)cc1	x	8	x	x	x	-4	6	0
CCCC(=O)Nc1c2c(nn1-c1ccc(C)cc1C)CSC2	-3	x	i	-2	1	1	2	-14
CC1CCCN(C(=O)CCS(=O)(=O)Cc2ccccc2)C1 (centres undefined)	-7	x	i	-4	-8	-7	-1	-7
COc1ccc(S(=O)(=O)N2CCC(C(=O)NCCC(=O)NCc3ccncc3)CC2)cc1	x	-10	i	x	-16	0	4	-3
CCC1NC(=S)NC(C)=C1C(=O)c1ccccc1 (centres undefined)	9	3	i	-6	11	2	1	-20
COc1ccc(N2CCN(c3nc4c(c(=O)n(C)c(=O)n4C)n3Cc3ccccc3)CC2)cc1	-3	x	i	-7	-8	-4	-13	17
COc1ccc(C(=O)Nc2ccc(-c3ccc(C)o3)cc2)cc1S(=O)(=O)N1CCOCC1	7	63*	i	0	1	10	-23	-1
CC1CC1C(=O)OCC(=O)Nc1cccc(F)c1 (centres undefined)	x	x	x	x	-11	3	2	-9
COc1ccc(CCN2CCC(CN3C(=S)NC[C@@H]3CC(C)C)CC2)cc1OC	x	38	x	x	x	2	3	0
Cc1ccc2c(CN3CC(C)CC(C)C3)cc(=O)oc2c1 (centres undefined)	-3	16	i	-5	0	-5	0	-8
CC(C)CC(OC(=O)c1cccs1)C(=O)NCc1cccs1 (centres undefined)	-5	34	i	-5	-8	0	11	-5
CC1CCCC(C)N1/N=C/c1ccc(O)c(O)c1 (centres undefined)	0	0	i	24	21	-1	5	-12
COC(=O)CSc1nc(C)cc(C)n1	-6	3	i	1	-5	-1	-1	-24
O=C1CC(NCc2ccc(F)cc2)C(=O)N1c1ccccc1 (centres undefined)	11	-36	i	4	-1	3	7	1
CSc1ccc(CNc2ccc(C)cc2)cc1	-2	-49	i	-1	6	-1	-1	-16
COc1cc2c(cc1OC)CN(C(=O)C1CCCN1S(=O)(=O)c1ccc(C)cc1)CC2 (centres undefined)	-6	-11	i	2	-25	2	2	1
O=C(N=C1SC2CS(=O)(=O)CC2N1c1ccccc1)c1cccc([N+](=O)[O-])c1 (centres undefined)	x	43	x	x	-15	-4	-7	-8
CCN(C[C@H]1N[C@@](CC)(C(=O)OC)[C@H]2C(=O)N(Cc3ccccc3)C(=O)[C@@H]12)C(=O)Nc1ccc(C)cc1	x	56*	x	x	x	1	7	-2
O=C(Nc1sc2c(c1C(=O)O)CCC2)C(=O)N1CCOCC1	23*	-29	i	86*	2	-1	4	-7	eIF4H FP inh retest=84*;PABP FP inh retest=66*
Clc1ccc(-n2cccc2/C=N/n2cnnc2)cc1	5	x	i	-8	-10	-2	0	-14
CCCCc1ccc(NC(=S)N2CCN(c3ccccn3)CC2)cc1	-7	-34	i	-9	28	5	3	-21
O=C(Nc1c[nH]c(=O)[nH]c1=O)c1cccc(F)c1	-8	4	i	-12	-12	1	8	-21
CCOC(=O)c1ccc(Nc2ccc(C(C)=O)cc2)cc1	x	-82	x	x	x	-1	-1	-13
CC(=O)c1c(N2CCOCC2)nc(=S)n(Cc2ccccc2)c1C	-2	x	i	-1	-1	-1	0	x
Cc1cc(C)n(C(=O)C(C)n2nc([N+](=O)[O-])c(Br)c2C)n1 (centres undefined)	6	7	i	5	x	-6	2	x
COc1ccc(C(=O)NC(=S)Nc2ccc3[nH]c(=O)[nH]c3c2)cc1Br	x	9	x	x	x	0	6	-1
CCN1C(=O)C(CC(=O)Nc2ccc(F)cc2)N(CCc2ccc(OC)cc2)C1=S (centres undefined)	4	-10	i	1	51	3	5	x
COc1ccccc1OCCSc1nnc(C)n1-c1ccccc1	-4	-30	i	-2	-10	1	-4	-20
CCOC(=O)N1CCN(C(=O)c2cnn3c(C)c(Cc4ccc(C)cc4)c(C)nc23)CC1	4	x	i	1	-12	1	-4	x
O=C(CCC(=O)N(CC(=O)NC1CCCC1)Cc1ccccc1Cl)Nc1nccs1	1	-8	i	3	-14	-7	-5	-9
CCOc1cc(CNc2ccc3c(c2)CCC3)ccc1OC	27	x	i	11	7	x	x	x
Cc1[nH]oc(=O)c1N=Nc1c(Cl)cccc1Cl	10	-22	i	-3	-1	4	4	x
CCOC(=O)c1c(N)nn(C(=O)C(C)C)c1-c1ccc(OC)cc1	-1	-16	i	-4	-13	-2	-4	-10
Cc1cccc(C(=O)N/N=C/c2ccoc2)c1	3	4	i	35	9	-1	2	-10
CC(=O)Nc1cnc2ccccc2n1	12	-31	x	-4	-15	-9	0	-25
COc1ccc(N=Cc2c(O)ccc3ccccc23)cc1	u	24	i	u	11	1	2	x
